Autofluor counter – counter-screen for toxin protease inhibitors: compound fluorescence; compound autofluorescence counterscreen, microsphere flow cytometry; stronger effect = higher value; fluorescence intensity (no concentration beside the values); 360,000 compounds, 3.1% hits; AID 624483;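 active means at least 3 SD above the mean of all compounds, about 16000 in these data; inconclusive means too few beads counted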;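 further: 100 nL of 1 mM stock went into each well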
Mtb hypoxia rep – Mtb hypoxia fluorescent reporter inhibition; M. tuberculosis hypoxia-regulated fluorescent reporter, fluorescence; AID 1159583; 300,000 compounds, 0.1% hits; fluorescence inhibition, % (test concentration not listed);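 active means 35 to 45% if threefold the growth effect, above 45% if 1.5-fold the growth effect; inactive means the rest, general growth blockers included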;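 further: wells of about 50 µL received 100 nL stock; 0% = vehicle wells and 100% = reference inhibitor wells; whole bacteria with a GFP reporter of the hypoxia response; strong numbers were not always called active; many hits fall short of the cut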
PrP UTR inh – suppresses PrP 5' UTR mRNA reporter expression; inhibition, % (concentration not given with the values); 340,000 compounds, 0.35% hits; cell-based PrP 5' UTR mRNA reporter, plate reader; AID 488862;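 active means every replicate at 50% or more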;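 further: 0 = median of the neutral control wells; tested in H4 reporter cells; numbers are from one replicate; inactives centre near -14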
RN4220 kill – kills Staphylococcus aureus RN4220. S. aureus RN4220 growth, OD600, 16 h. inhibition, % (concentration not given with the values). 330,000 compounds, 0.33% hits;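 active means z-score of -3 or lower and OD600 up to 0.18 on both plates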;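 further: plate controls were untreated cells for no effect and reference antibiotic for full effect; stock transfer was 100 nL into about 80 µL; one replicate is shown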
BJeLR viability – kills HRASV12-expressing BJeLR cells; BJeLR (HRASV12) viability, CellTiter-Glo ATP luminescence, 48 h; reference of the scale not given here; inhibition, % (concentration not given with the values); 300,000 compounds, 0.17% hits; AID 1554;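 active means replicate mean above 50%; inconclusive means above 50% but judged a plate artefact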;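 further: 50 nL library stock added to about 25 µL; numbers are from one replicate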
ugtP null kill – kills S. aureus RN4220 lacking UgtP; S. aureus RN4220 ugtP deletion, OD600 growth, 16 h; some inactives read as strong as hits; 330,000 compounds, 0.54% hits; growth inhibition, % (no concentration beside the values);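 active means z-score under -3 and OD600 up to 0.15 on both plates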;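 further: plate controls were untreated wells for no effect and antibiotic for full effect; wells of about 80 µL received 100 nL stock; the first replicate is given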
Mtb hypoxia rep growth – second read-out of Mtb hypoxia rep, no call of its own (marks repeat the call); growth inhibition, %; measured here: M. tuberculosis growth (absorbance);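 0% = vehicle and 100% = reference antibiotic; read after six days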
* hit, by the source's call; ? = inconclusive; nt = no result given.

item	smiles	Autofluor counter	Mtb hypoxia rep	Mtb hypoxia rep growth	PrP UTR inh	RN4220 kill	BJeLR viability	ugtP null kill
1	CN(C)S(=O)(=O)N1CCC(Oc2cccc(C(=O)NC3CCCCCC3)c2)CC1	4064	6.2	5.4	-24.2	2.8	16.0	11.8
2	CC(=O)Nc1ccc(C(=O)OC2CCCCC2=O)cc1 (centres undefined)	3338	nt	nt	-1.8	-4.6	0.1	-3.4
3	O=C(NCCCCCCOC1=NS(=O)(=O)c2ccccc21)C(=O)Nc1ccccc1	2461	-2.5	-7.9	-35.6	4.8	-4.1	10.1
4	Cc1nn(C)c(C)c1NC(=O)c1ccccc1NC(=O)Nc1ccccc1	4134	6.6	5.9	-7.6	3.3	2.8	3.8
5	CC(=O)N1CCN=C1SCc1ccccc1F	5986	nt	nt	-7.4	4.6	-2.4	4.8
6	O=C(Nc1ccncc1)c1cc(S(=O)(=O)N2CCOCC2)ccc1Cl	6282	5.7	7.9	-12.7	8.1	3.3	7.1
7	Cc1[nH]c(=O)[nH]c(=O)c1S(=O)(=O)Nc1ccc(F)cc1Cl	2977	0.3	-13.0	-4.3	-0.5	0.3	5.3
8	CCOc1ccc2oc(C(=O)N3CC(C)OC(C)C3)c(C)c2c1 (centres undefined)	6280	3.5	11.8	-17.7	0.2	-8.4	-3.7
9	CCOC(=O)c1ccsc1NC(=O)c1ccco1	5590	8.9	6.8	-19.7	8.2	6.3	-1.7
10	Cc1cc(C)c(OCC(=O)Nc2cc(C(=O)O)cc(C(=O)O)c2)cc1C	4499	-0.3	-9.9	-18.7	2.0	-4.1	4.1
11	CC(=O)/C=C/c1ccc2ccccc2n1	2057	nt	nt	-13.9	10.5	29.9	2.6
12	Cc1cccc(CC2CC(=O)N(c3nc4ccccc4s3)C2=O)c1 (centres undefined)	4057	-4.4	-12.3	-13.7	-6.1	2.9	-2.2
13	CCOC(=O)c1c(N)c(C#N)nn1-c1ccccc1C(=O)OC	nt	12.7	4.7	nt	5.7	5.0	8.5
14	Cn1c(=O)c2c(nc(NCC3CCCO3)n2C)n(C)c1=O (centres undefined)	8209	4.0	5.5	-24.9	4.3	0.4	9.1
15	O=C(CCC(=O)N(c1cccc(F)c1)C(C(=O)NC1CCCC1)c1ccncc1)Nc1cccnc1 (centres undefined)	7860	11.0	9.3	-40.1	4.3	10.3	-11.9
16	CCOC(=O)C1=NOC2C(=O)N(c3ccc(Cl)cc3Cl)C(=O)C12 (centres undefined)	3611	10.7	1.5	-8.8	3.8	-5.4	2.3
17	COc1ccc(CC(=O)N2CCc3cc(OC)c(OC)cc3C2C)c(OC)c1 (centres undefined)	3829	-11.1	4.2	-6.8	0.2	-13.7	3.6
18	Cc1c(CCC(=O)O)c(=O)oc2cc(OCc3ccc(Br)cc3)ccc12	3949	3.4	10.4	-20.0	6.5	11.2	10.4
19	O=C(Nc1ccccc1C(F)(F)F)NC1CCCCC1	15516	13.7	-2.4	4.6	4.4	3.0	8.1
20	COc1ccc(-n2c(SC3CCOC3=O)nc3ccccc3c2=O)cc1OC (centres undefined)	15606	3.0	-0.9	-2.8	2.6	-0.7	-0.3
21	CSc1ccccc1NC(=O)Cn1nnc(-c2ccc(S(C)(=O)=O)cc2)n1	2465	14.2	2.8	-11.0	6.9	3.4	-8.6
22	CC(CN1CCCC1)OC(=O)c1ccc(Cl)cc1Cl (centres undefined)	3846	0.7	8.5	-6.0	0.7	19.6	1.0
23	Cc1ccsc1/C=C1/SC(=O)N(CC(=O)N2CCCC2)C1=O	5317	11.8	17.5	-14.9	-2.2	-11.1	4.1
24	Cn1cccc1C(C#N)c1cccc(F)c1C#N (centres undefined)	4814	4.5	-8.7	-52.8	-2.1	-2.9	-16.7
25	Cc1ccc(C(=O)NNC(=O)C2CCN(Cc3ccccc3)CC2)cc1	2899	nt	nt	-19.9	0.1	-6.6	-5.8
26	Cc1nnc(SCc2ccccn2)n(N)c1=O	3373	-1.1	-3.5	-1.5	2.9	-2.9	1.6
27	O=[N+]([O-])c1cc(Cl)ccc1N1CCCCC1	3381	1.8	8.1	-18.0	6.6	-5.4	-0.8
28	Cc1c(/C=C(\C#N)C(=O)NCc2ccccc2)cc(C#N)n1C	2903	9.1	-0.8	-5.3	2.6	2.8	3.0
29	Cc1cc(=O)n(C)c(=O)n1CCCCCCN1CCCC1	5431	-0.2	2.2	-15.2	2.6	-4.2	2.7
30	O=C(CCN1C(=O)C2(OCCO2)c2ccccc21)c1ccccc1	4958	nt	nt	-31.4	-0.2	-2.1	2.2
31	CN(C(=O)c1cccc(NC(=O)Cc2ccc(NC(=O)C3CCCN(C(=O)CCc4ccccc4)C3)cc2)c1)C1CCCCC1 (centres undefined)	4424	-5.8	5.7	-13.1	5.8	nt	-3.3
32	Cc1ccccc1-c1nnc(SCC(=O)Nc2c(C)n(C)n(-c3ccccc3)c2=O)o1	4230	11.6	6.5	-7.5	5.8	-1.8	-9.1
33	Cc1ccc(S(=O)(=O)c2c(C)cc(-c3ccccc3)[nH]c2=O)cc1	9429	8.1	11.5	-18.3	0.6	-4.2	-1.8
34	CC(C)COc1ccc(C(=O)N/N=C/c2ccoc2)cc1	4988	nt	nt	-14.0	nt	-4.5	nt
35	COc1cc(C=NNC(=O)c2cc3ccccc3[nH]2)ccc1O	nt	14.5	8.5	nt	-0.7	nt	-7.8
36	Cc1cc(C)c2cc3c(N)c(C(=O)N4CCOCC4)sc3nc2c1	2728	-4.0	5.4	-27.0	-0.7	-4.4	-3.1
37	Cc1nnc(SCC(=O)Nc2cc(S(=O)(=O)N3CCOCC3)ccc2C)s1	nt	-2.8	8.3	4.0	0.8	nt	-1.4
38	CCOC(=O)C1=C(O)C(=Cc2cc(C)n(-c3ccc(F)cc3)c2C)N=C1C	nt	6.3	6.3	nt	6.1	nt	-4.4
39	C/C(=N\N=C1\NC(=O)C(Cc2ccccc2)S1)c1ccccc1 (centres undefined)	4570	nt	nt	1.6	nt	-3.6	nt
40	COC(=O)c1cc2n(n1)CCN(Cc1ccc(OC)cc1)C2=O	2880	nt	nt	-14.7	-3.5	2.2	-5.1
41	CCOC(=O)c1sc(NC(=O)c2ccccc2OC)nc1C	5578	2.0	-0.9	-53.2	2.7	37.3	8.9
42	C=CCOC(=O)C1=C(C)NC(C)=C(C(=O)OCC=C)C1c1ccco1	5679	6.9	2.1	1.7	2.1	-1.0	13.1
43	N=C1C(c2nc3ccccc3c(=O)[nH]2)=C(O)CN1CCc1ccccc1	5096	4.3	3.3	-18.1	1.0	-15.2	7.7
44	COc1cccc(CNC(=O)c2ccc(C)c(S(=O)(=O)N3CCOCC3)c2)c1	?	3.3	8.8	-5.7	1.5	2.9	1.2
45	COc1ccc(C)cc1NC(=O)CSc1nnc(COc2ccccc2)n1Cc1ccco1	10514	1.6	4.0	-13.5	-4.0	-5.2	-9.3
46	C=CCn1c(SCC(=O)c2cccs2)nc2sc(C)c(C)c2c1=O	3421	nt	nt	-1.8	0.7	3.0	9.9
47	c1cc2c(c(NCc3ccncc3)c1)CCCC2	2700	5.8	8.1	-15.7	3.3	12.6	-4.9
48	COc1ccc(S(=O)(=O)NCc2ccccn2)cc1NC(=O)c1ccc(Cl)cc1	?	1.6	-5.4	-16.5	4.4	6.5	5.8
49	CCN(CC(=O)NCc1cccs1)S(=O)(=O)c1ccc(F)c(F)c1F	4355	6.2	2.0	6.8	0.4	5.5	2.7
50	COC(=O)C1=C(N)Oc2c(oc(CO)cc2=O)C1c1ccccc1F (centres undefined)	10981	4.7	3.6	-14.6	3.3	-0.4	-9.1

Given with values under each structure: entries from further up.
Under each structure: Autofluor counter	Mtb hypoxia rep	Mtb hypoxia rep growth	PrP UTR inh	RN4220 kill	BJeLR viability	ugtP null kill
7) Cc1[nH]c(=O)[nH]c(=O)c1S(=O)(=O)Nc1ccc(F)cc1Cl
    2977	0.3	-13.0	-4.3	-0.5	0.3	5.3
29) Cc1cc(=O)n(C)c(=O)n1CCCCCCN1CCCC1
    5431	-0.2	2.2	-15.2	2.6	-4.2	2.7

(cont.)
item	smiles	Autofluor counter	Mtb hypoxia rep	Mtb hypoxia rep growth	PrP UTR inh	RN4220 kill	BJeLR viability	ugtP null kill
51	Cc1ccc(NC(=O)CCCn2nc(C)c3c(C)n(-c4ccccc4)nc3c2=O)cc1C	5653	6.7	4.8	-0.4	3.7	-7.8	2.4
52	Cc1occc1C(=O)N/N=C/C=C/c1ccccc1[N+](=O)[O-]	2097	nt	nt	-36.6	nt	5.0	nt
53	Nc1ccc(Oc2ncccn2)cc1	3367	0.3	5.1	-20.0	2.6	0.1	-16.9
54	Cc1ccc(S(=O)(=O)N2CCOCC2)cc1N/N=C(\C#N)c1nc2ccccc2[nH]1	2643	nt	nt	0.1	nt	0.9	nt
55	CCOC(=O)C1(Cc2ccccc2C(F)(F)F)CCN(C(=O)c2cc(C)n(C)n2)CC1	2123	14.0	5.0	-73.9	12.1	-2.0	5.7
56	COc1ccccc1CNC(=S)NC1CCCCC1	3596	0.2	-1.2	4.5	2.7	-3.7	1.8
57	COc1ccc(Cl)cc1NC(=O)C[n+]1ccccc1	4429	15.3	3.7	-17.0	5.3	2.9	3.4
58	COc1ccc2cc(/C(C)=N/NC(=O)c3cc(-c4cccnc4)nc4ccccc34)ccc2c1	2125	nt	nt	-4.3	nt	-7.3	nt
59	Cc1sc(NC(=O)CN(C)C2CCCCC2)nc1-c1ccc2c(c1)CCN2S(=O)(=O)c1ccccc1	nt	3.6	-0.8	nt	1.2	-0.6	-2.5
60	O=CN1CCN(C(C(=O)NC2CCCC2)c2ccc(Cl)cc2)CC1 (centres undefined)	4234	12.0	18.6	-38.2	7.9	-2.0	3.7
61	Cc1ccc(C(=O)N2C3CN(C)C(=O)[C@@]2(Cc2ccccc2)C2C(=O)N(C)C(=O)C32)cc1 (some centres undefined)	nt	17.0	7.7	nt	5.2	nt	2.6
62	CC1CCCCN1C(=O)CSc1nc(-c2ccccc2)cn1N (centres undefined)	4472	3.0	13.8	-5.9	2.9	1.3	2.2
63	CCOC(=O)C1=CNS(=O)(=O)NC1c1ccc(C)cc1 (centres undefined)	3819	-5.3	5.2	-7.8	1.2	nt	0.7
64	Cc1cccc2c1N(CCOc1ccccc1Cl)C(=O)C2=O	2475	-5.1	7.0	2.1	6.3	-1.5	-5.2
65	COc1ccc(OCC(O)CON2C(=O)c3ccccc3C2=O)cc1 (centres undefined)	9181	9.7	4.0	-40.7	0.9	-12.6	-2.4
66	COc1cc(-c2nnn(Cc3ccccc3C)n2)cc(OC)c1OC	3373	7.2	-1.8	-26.3	3.0	0.9	2.4
67	CC1=NN(c2ccccc2)C(=O)/C1=C\c1cc(C)n(-c2ccccc2)c1C	2352	15.6	-0.8	-27.6	-4.0	-22.3	16.5
68	CS(=O)(=O)N(CC(O)Cn1c2ccccc2c2ccccc21)c1ccccc1 (centres undefined)	3285	-0.8	-6.8	-17.4	-1.0	-6.3	-15.5
69	O=C1c2ccccc2C(=O)N1CSc1nnc2c3ccccc3n(CCc3ccccc3)c2n1	2869	nt	nt	-17.6	-2.2	0.2	-6.0

Compound activity (PubChem BioAssay)
